Bioassay records as filed in PubChem.
S1P4 agonist: activates the human S1P4 receptor; S1P4-expressing cell line, agonist reporter assay; activation, % at 4.98 µM; 220,000 tested, 0.35% active; AID 1509; in the data active = activation above about 11%;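 note: 0% = DMSO vehicle and 100% = reference agonist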
NPY-Y2 PAM-ag: potentiates or activates human NPY-Y2 receptor. activation, % at 3.6 µM. 220,000 tested, 0.45% active. cells expressing NPY-Y2, potentiator/agonist read-out. P49146; in the data active = activation above about 27%;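 note: cells stimulated with NPY near EC25 plus isoproterenol at EC100; 0% = vehicle plus submaximal agonist and 100% = vehicle plus saturating agonist; some results beyond the cut were filed as inactive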
RBBP9 inh: human RBBP9 hydrolase inhibition. recombinant RBBP9, FP-Rh probe fluorescence polarization. inhibition, % at 7.94 µM. 220,000 tested, 0.2% active. AID 1515;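 active = inhibition above the campaign mean of all tested compounds plus 3 SD, cut at about 14% in these data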;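 note: plate controls were DMSO wells with RBBP9 for no effect and wells lacking RBBP9 protein for full effect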
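System: RBBP9 protein | Quantity: 2.5 µM RBBP9 dispensing solution, before mixing | Reagent: FP-Rh probe, 375 nM dispensing solution | Timing: Enzyme-compound preincubation 30 min, then probe labeling 45 min, 25 °C | Measured by: Fluorescence polarization | Read-out: % inhibition | Replication: One well per compound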
NPY-Y1 PAM-ag: human NPY-Y1 potentiation or agonism, primary screen; NPY-Y1 expressing cells, potentiator/agonist activation; activation, % at 3.6 µM; 220,000 tested, 0.37% active; AID 1304; in the data active = activation above about 33%, passing the limit was not always enough;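 note: cells stimulated with NPY at EC10 then isoproterenol at EC100; 0% = low agonist plus stimulus and 100% = saturating agonist plus stimulus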
Target sequence (P25929 whole entry, looked up): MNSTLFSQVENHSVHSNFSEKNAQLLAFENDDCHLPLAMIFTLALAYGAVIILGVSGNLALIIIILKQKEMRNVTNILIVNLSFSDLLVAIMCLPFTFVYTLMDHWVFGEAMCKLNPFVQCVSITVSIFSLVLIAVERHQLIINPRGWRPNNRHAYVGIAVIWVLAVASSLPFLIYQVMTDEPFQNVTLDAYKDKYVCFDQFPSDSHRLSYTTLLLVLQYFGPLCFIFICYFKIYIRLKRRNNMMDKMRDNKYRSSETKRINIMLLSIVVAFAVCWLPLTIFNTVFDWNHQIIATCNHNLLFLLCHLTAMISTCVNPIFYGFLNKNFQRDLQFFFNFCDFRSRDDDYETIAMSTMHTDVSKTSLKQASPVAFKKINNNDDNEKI
NPY-Y1 antag: NPY-Y1 (human) receptor antagonism; P25929; HEK293-CNG Y1 cells, membrane potential fluorescence; NPY at EC95, then isoproterenol; inhibition, % at 3.6 µM; 200,000 tested, 1% active; AID 1040;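 active = inhibition above the campaign mean inhibition of all tested compounds plus 3 SD, cut at about 20% in these data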;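 note: 0% = DMSO wells given NPY plus isoproterenol and 100% = isoproterenol alone without NPY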
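Test system – HEK293 Y1/CNG channel cell line · Also added – NPY agonist 25 nM, then isoproterenol 1 µM plus Ro 20-1724 25 µM · Compound dosing – one concentration, 3.6 µM, in 0.4% DMSO · Schedule – compound incubation 1 h at room temperature, readout 45 min post-stimulation · Technique – fluorescence, membrane potential probe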
S1P4 antagonist: human S1P4 receptor antagonism | O95977 | inhibition, % at 4.98 µM | 220,000 tested, 0.26% active | AID 1510 | S1P4-expressing cells, antagonist mode, reporter read-out; in the data active = inhibition above about 29%;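 note: 0% = wells stimulated with agonist and 100% = vehicle wells without agonist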
Starred values were filed as active, the others as inactive. The list is partial; rates above refer to the full screens.

SMILES | S1P4 agonist | NPY-Y2 PAM-ag | RBBP9 inh | NPY-Y1 PAM-ag | NPY-Y1 antag | S1P4 antagonist
COCc1cc(C)nc(SCC(=O)c2ccc(O)c(O)c2)c1C#N | 0.3 | -9 | -11 | -3 | 2 | -8
Cc1cccc(CCN2CCC(C(=O)c3ccc(NS(C)(=O)=O)cc3)CC2)n1 | 0.0 | -15 | 1 | 18 | -3 | 12
O=c1[nH]cc(F)c(=O)[nH]1 | 2.2 | 5 | -13 | 14 | 1 | -6
NC(=O)C1CCN(C(=O)Nc2ccccc2)CC1 | 1.1 | -12 | 2 | 3 | -3 | -20
Cc1ccc(NC(=O)c2sccc2SCc2cccc(C(F)(F)F)c2)cc1 | 2.2 | -29 | -14 | -35 | 17 | -23
O=C(N/N=C/c1ccc(Sc2ccccn2)o1)c1cccc([N+](=O)[O-])c1 | 0.2 | -7 | 7 | -16 | -5 | -7
NS(=O)(=O)c1ccc(NC(=O)Nc2ccc(Cl)cc2)cc1 | 0.2 | 24 | -17 | 8 | -1 | 1
CN1CCN(C(=O)c2ccc(NS(=O)(=O)c3ccccc3)cc2)CC1 | -1.7 | -2 | -13 | 7 | -4 | 6

Sorted by value in NPY-Y2 PAM-ag (lowest first): 3 from the list above
mol	S1P4 agonist	NPY-Y2 PAM-ag	RBBP9 inh	NPY-Y1 PAM-ag	NPY-Y1 antag	S1P4 antagonist
COCc1cc(C)nc(SCC(=O)c2ccc(O)c(O)c2)c1C#N	0.3	-9	-11	-3	2	-8
O=c1[nH]cc(F)c(=O)[nH]1	2.2	5	-13	14	1	-6
NS(=O)(=O)c1ccc(NC(=O)Nc2ccc(Cl)cc2)cc1	0.2	24	-17	8	-1	1

Sorted by length of the SMILES (falling): some entries from above
SMILES | S1P4 agonist | NPY-Y2 PAM-ag | RBBP9 inh | NPY-Y1 PAM-ag | NPY-Y1 antag | S1P4 antagonist
O=C(N/N=C/c1ccc(Sc2ccccn2)o1)c1cccc([N+](=O)[O-])c1 | 0.2 | -7 | 7 | -16 | -5 | -7
CN1CCN(C(=O)c2ccc(NS(=O)(=O)c3ccccc3)cc2)CC1 | -1.7 | -2 | -13 | 7 | -4 | 6
COCc1cc(C)nc(SCC(=O)c2ccc(O)c(O)c2)c1C#N | 0.3 | -9 | -11 | -3 | 2 | -8
O=c1[nH]cc(F)c(=O)[nH]1 | 2.2 | 5 | -13 | 14 | 1 | -6
